Screening results as filed in PubChem.
VACV Venus inh: inhibitors of vaccinia virus (Venus reporter). Vaccinia virus Venus reporter expression, fluorescence. Potency, µM (highest dose often 36.5 µM), inactives show top-dose activity change, negative = inhibition, hits mostly inhibitors. 0.46% of 330,000 active; active means well fitted inhibition curve with a large enough effect; inconclusive means small, poorly fitted or top-dose-only effect; inactive means no such curve, though single readings can be large or run the other way; tested in A549 cells; also: nearly all actives have a fitted effect of over 30% in size; inactives centre near -10
VACV mCherry inh: inhibitors of vaccinia virus infection (mCherry reporter signal) | Potency, µM (series often up to 36.5 µM), for the others: at the top dose activity change, negative = inhibition, hits mostly inhibitors | AID 720579 | 0.63% of 310,000 active | Vaccinia virus mCherry reporter infection, fluorescence; about a quarter of the inactives have no number; active = well fitted inhibition curve with a large enough effect; inconclusive = small, poorly fitted or top-dose-only effect; inactive = no such curve, though single readings can be large or run the other way; tested in A549 cells; also: nearly all actives have a fitted effect of over 35% in size; inactives centre near -10
Active calls of the source: *; i = inactive; ? = inconclusive; nt = no result given; & = joins results of further samples; [ ] = another dose, or the depositor's remark. % is scaled to controls: 0 for no effect and ±100 for the full control effect; potency is read from the fitted curve at half-maximal effect. Random draw from the library (roughly 0.82% active in at least one column).

molecule	VACV mCherry inh	VACV Venus inh
COc1cc(S(=O)(=O)N2CCN(C)CC2)ccc1Cl	-2.3%	-1.5%
Cc1ccc(Cl)cc1N1CCN(CCCNc2ncnc3onc(-c4ccc(Cl)cc4)c23)CC1	-16.7%	-11.3%
O=C(NCc1ccccc1)c1cccc(S(=O)(=O)NCc2ccccc2)c1	i	-6.2%
Cc1cccc(-c2ncc(CN3CCN(CC(C)C)C(CCO)C3)cn2)c1 (configuration not stated)	-2.5%	-5.3%
CC(Oc1ccccc1)C(=O)Nc1ccc(S(=O)(=O)NCC2CCCO2)cc1 (configuration not stated)	-20.5%	-5.5%
S=C(NCc1ccco1)N1CCOCC1	-6.4%	5.7%
Cc1cc(-n2c(C)nc3ccccc3c2=O)ccc1NC(=O)c1ccc([N+](=O)[O-])cc1	-6.1%	-4.6%
CCOc1ccccc1C=C1SC(=S)NC1=O	-21.5%	13.4%
CN(C)S(=O)(=O)c1ccc(N2CCCC2)c(C(=O)NNC(=O)COc2ccc(Cl)cc2)c1	-15.8%	-4.6%
O=C(O)c1csc(Br)c1Br	nt	-0.6%
CCN(CC)C(=O)CSc1nc2cc3c(cc2c(=O)n1CCCCCC(=O)NCc1ccc(OC)cc1)OCO3	3.4%&-24.1%	-2.0%&-16.3%
COc1ccc(CNC(=O)c2cc(C3CC3)nc3c2c(C)nn3-c2cccc(Cl)c2C)cc1	-7.0%	-10.0%
COc1ccccc1NC(=O)c1cc(C)oc1C	i	-18.5%
O=C(Nc1cc(C(F)(F)F)ccc1Cl)C(Sc1cccc[n+]1[O-])c1ccccc1 (configuration not stated)	-25.6%	-16.6%
CCC1Nc2ncnc(N3CCN(c4ccccc4)CC3)c2N(Cc2ccc(Br)cc2)C1=O (configuration not stated)	-6.7%	?
CCOC(=O)C1=C(C)Nc2[nH]c(=O)[nH]c(=O)c2C1c1cccs1 (configuration not stated)	-18.0%	-6.3%
CCCN(CC(=O)Nc1ccccc1OC)C(=O)CCCN1C(=O)c2ccccc2C1=O	-17.1%	-6.2%
CCc1ccc(NC(=O)CSc2nc3c(sc4ccccc43)c(=O)n2CCCOC)cc1	-4.0%	-8.3%
COc1ccc(-c2c3c(=O)n(C)c(=O)n(C)c3c3n2-c2ccccc2NC3c2ccccc2OC)cc1 (configuration not stated)	?	-22.6%
Nc1ccc(-n2cnc3cc([N+](=O)[O-])ccc32)cc1	nt	-15.1%

Two entries from above, as labelled records.
Molecule: CCN(CC)C(=O)CSc1nc2cc3c(cc2c(=O)n1CCCCCC(=O)NCc1ccc(OC)cc1)OCO3
  VACV mCherry inh: 3.4%&-24.1%
  VACV Venus inh: -2.0%&-16.3%
Molecule: COc1ccc(CNC(=O)c2cc(C3CC3)nc3c2c(C)nn3-c2cccc(Cl)c2C)cc1
  VACV mCherry inh: -7.0%
  VACV Venus inh: -10.0%

Next part:
molecule	VACV mCherry inh	VACV Venus inh
CC1CCN(CCc2nc3cc(NS(=O)(=O)c4ccc(F)cc4)ccc3n2C)CC1	-6.4%	-20.2%
O=C(Cc1cccc([N+](=O)[O-])c1)Nc1ccccc1	i	-13.0%
COc1ccc(N2CC(C(=O)NCc3n[nH]c(=O)c4ccccc34)CC2=O)cc1 (configuration not stated)	i	-7.2%
CN(C)c1cccc(C(=O)N2CCCC(CCC(=O)N3CCN(c4ccccn4)CC3)C2)c1 (configuration not stated)	-8.9%	-6.6%
COc1ccc(C(=O)NCC(C)(C)SCc2c(C)cc(C)cc2C)cc1	-8.4%	-22.3%
CCOC(=O)c1ccc(N2C(=O)c3n[nH]c(-c4cccs4)c3C2c2ccc(C)cc2)cc1 (configuration not stated)	-12.2%	-8.7%
CCCCNC(=O)CCc1c(C)nc2cc(-c3ccccc3)nn2c1C	-9.6%	-7.4%
COc1ccc(-c2nc3ccccc3o2)cc1NC(=O)COc1ccc(C(C)(C)C)cc1	-11.1%	-9.3%
C#CCNC(=O)C1=C[C@@H](C)C[C@@H](OCc2ccc(CO)cc2)O1	-6.5%	-7.7%
O=C(CSc1nncs1)NCCCc1ccccc1	-17.9%	-5.6%
CCOc1ccc(CNC(=O)CCCn2c(=O)c3cccn3c3ccc(F)cc32)cc1	-6.2%	-8.7%
CCc1ccc(NC(=O)Cn2c(SC)nc3ccccc32)cc1	nt	-6.1%
O=C(CSc1nc2c([nH]c3ccccc32)c(=O)n1-c1ccccc1F)NCC1CCCO1 (configuration not stated)	-28.6%	-14.0%
Cc1cccc(NC(=O)CSc2nc(N)c(NC(=O)c3cccs3)c(=O)[nH]2)c1C	4.7%	-2.4%
CCC1(c2ccc(F)cc2)NC(=O)N(CC(=O)N2CCN(C(=O)c3cccs3)CC2)C1=O (configuration not stated)	-8.8%	-7.6%
CCOC(=O)c1c(C)[nH]c(C(=O)Cn2nnc(-c3ccccc3Cl)n2)c1C	?	-24.8%
CCn1ncc(CN2CCCC(CNC(=O)c3ccc(F)cc3)C2)c1C (configuration not stated)	-4.6%	-9.2%
COC(=O)c1[nH]c2ccc(C)cc2c1NC(=O)NC1CCCCC1	nt	-18.6%
C=CCn1c(O)c(/C=N/NC(=O)CCCC)c(=O)[nH]c1=S	-2.8%	-6.9%
CC1COc2c3ccccc3nn21 (configuration not stated)	-5.1%	-11.6%
CC1(C(=O)NS(=O)(=O)c2cccc(Cl)c2)CCN1C(=O)c1cccc2ccccc12 (configuration not stated)	3.9%	-4.6%
CCN(CC)C(=O)c1cn(-c2ccccc2)nc1-c1ccc2c(c1)OCCO2	-3.6%	-6.8%
COc1ccc(/C=N/NC(=O)c2cc(C34CC5CC(CC(C5)C3)C4)[nH]n2)cc1O	nt	?
CCOc1ccccc1-n1c(SCC(=O)N2CCCC2)nnc1-c1ccoc1C	-5.8%	-9.5%
O=C(c1ccc(COc2ccccc2Br)cc1)N1CCCCC1	nt	-18.8%
COc1ccc(C(=O)NC2(C(F)(F)F)NC(=O)N(CCCc3ccccc3)C2=O)c(OC)c1OC (configuration not stated)	-10.6%	-3.0%
COc1ccc(C2(C(N)=O)CCCCC2)cc1OC	i[1.46 µM]	-4.5%
Cc1noc(C)c1S(=O)(=O)N1CCCC1C(=O)O (configuration not stated)	-12.6%	-14.3%
O=c1cc(O)c2sc3nc(-c4cccnc4)cc(C(F)(F)F)c3c2[nH]1	-12.9%	1.5%
CC(=O)N1c2ccc(S(=O)(=O)N3CCCC3C(=O)NCc3ccc(Cl)cc3)cc2CC1C (configuration not stated)	-8.0%	3.2%
CCN1CCc2c(sc(NC(=O)c3ccc(S(=O)(=O)N(C)CC4CCCO4)cc3)c2C(N)=O)C1 (configuration not stated)	?	-25.9%
COc1ccc(N2CCN(C(=O)c3cn(C4CCCC4)c(=O)c4c3c3ccccc3n4C)CC2)cc1	-17.2%	-21.3%
NC(CC(=O)O)c1ccc(F)cc1 (configuration not stated)	-10.7%	-3.3%
CN(c1ccccc1)S(=O)(=O)c1ccc(C(=O)NCCc2ccccc2)cc1	-12.7%	-14.0%
COc1ccc(Cn2cc(F)c(=O)n(C)c2=O)cc1[N+](=O)[O-]	-16.6%	-7.6%
COC1CCC2(C)C(=CCC3C4CC(O)CC4(C)CCC32)C1 (configuration not stated)	-10.1%	-5.0%
Cc1cc(Nc2cnc3ccccc3n2)n(-c2ccccc2)n1	?	-20.9%
Cc1cc(Br)c(NC(=O)COC(=O)CC2CC3CCC2C3)c(Br)c1 (configuration not stated)	-8.5%	20.9%
CCOc1ccc(C(=O)NC(=S)Nc2cccnc2)cc1[N+](=O)[O-]	-1.8%	-2.3%
CC(C)Oc1ccc(CNC(=O)Cc2ccc(NC(=O)N3CCSc4ncccc43)cc2)cc1	i	-21.7%
CC(CCc1ccc(O)cc1)N1CCOc2c(O)cc(-c3nc4ccccc4s3)cc2C1 (configuration not stated)	?	-32.9%
COc1cc(/C=C/C(=O)OCC(=O)NC(=O)NC(C)C)cc(S(=O)(=O)N2CCc3ccccc32)c1OC	-17.6%	?
Cn1nccc1C(=O)NC1CCCc2c1cnn2-c1ccc(F)cc1F (configuration not stated)	-7.2%	-17.6%
COc1ccc(CNCc2cc3c(C(C)(C)C)nn(-c4ccccc4)c3[nH]c2=O)cc1	?	-19.0%
Cc1ccc(C)c(S(=O)(=O)N2CCN(Cc3ccc(O)c4ncccc34)CC2)c1	?	?
CN1CCN(CC(=O)N2c3ccccc3C(=O)Nc3cccnc32)CC1	i	-4.9%
CCOC(=O)c1ccc(NC(=O)CSc2nnc(CNC(=O)c3ccccc3F)o2)cc1	i	-7.8%
Cc1cccc(N(C)C(CNS(=O)(=O)c2ccccc2)c2ccccc2)c1 (configuration not stated)	-5.8%	-5.2%
CCC(C)(C(=O)NC1CCCC1)N(Cc1cccs1)C(=O)Cc1cccs1 (configuration not stated)	-15.9%	-9.7%
CC1=C(c2ccc(Cl)cc2)S(=O)(=O)N=C1N1CCN(c2cc(C)ccc2C)CC1	-9.7%	-6.8%

The results go on:
molecule	VACV mCherry inh	VACV Venus inh
O=C(CSc1nnc2ccccn12)NNC(=O)c1ccc(F)cc1	i	-10.4%
O=C(N/N=C/c1ccncc1)c1nn(Cc2ccccc2)c(=O)c2ccccc12	i	-4.9%
COc1ccc(OC)c(Nc2nc(-c3ccncc3)nc3ccccc23)c1	-23.6%	-17.1%
CCOc1ccc(CNC(=O)c2cccn2-c2nnc(N3CCCCC3)s2)cc1OC	-23.6%	-10.4%
CCOc1ccc(-c2cc(C(=O)NCC3CCCO3)c3ccccc3n2)cc1 (configuration not stated)	i	-6.5%
Cc1ccc(-n2[nH]c(C)c(C=NC34CN5CN(CN(C5)C3)C4)c2=O)cc1C	nt	-6.1%
O=C1CN(c2ccc(F)cc2)C(=S)N1c1ccccc1	-19.6%	-8.8%
O=C(Nc1ccc2nsnc2c1)c1cccs1	i	-2.5%
N#Cc1c(C(F)(F)F)cc(-c2ccco2)nc1SCc1ccccn1	-23.0%	0.5%
CN1CCC(C2(O)c3ccccc3CCc3ccccc32)CC1	-3.5%	-8.0%
CS(=O)(=O)N1CCCC(C(=O)Nc2ccc(F)cc2)C1 (configuration not stated)	-3.8%	-19.2%
O=C(Nc1nc2ccccc2[nH]1)c1cc(F)cc(F)c1	-11.8%	-2.6%
O=C1OCCC1Sc1nnc(-c2ccccc2Cl)n1Cc1ccccc1 (configuration not stated)	-11.1%	-6.2%
O=C(c1ccc2c(c1)OCO2)N(Cc1cc2cc3c(cc2nc1N1CCOCC1)CCC3)CC1CCCO1 (configuration not stated)	-10.4%	-6.9%
Cc1ccc(-n2c(SCC(=O)N3CCN(c4ccccn4)CC3)nnc2N2CCCC2)cc1	-1.9%	-12.7%
C=C(c1ccc2nc(NC(=O)OC)[nH]c2c1)c1cccs1	?	?
O=C(Nc1ccccc1N1CCCCC1)c1ccc(F)c(S(=O)(=O)N2CCOCC2)c1	0.8%	-1.1%
CCCc1ccc(-c2cc(NC(=O)CSc3nnc(N)s3)n(-c3ccccc3)n2)cc1	?	?
NS(=O)(=O)c1ccc(NC(=S)Nc2ccc(S(=O)(=O)N3CCCC3)cc2)cc1	-12.6%	-4.0%
CCOC(=O)N1CCc2c(sc3c2c(=O)n(-c2ccc(CC)cc2)c(=O)n3Cc2ccc(F)cc2Cl)C1	-18.9%	-5.0%
[O-][n+]1cccc2cccc(O)c21	-4.8%	5.8%
O=C(NCCCN1CCOCC1)c1ccc(CSc2ccc(Cl)cc2)cc1	-9.1%	-24.2%
CCOC(=O)N1CCN(C(=O)c2ccc3c(=O)n(-c4cc(OC)ccc4OC)c(=S)[nH]c3c2)CC1	i	-14.8%
O=S(=O)(NCc1cn2ccsc2n1)c1ccc2c(c1)OCCO2	nt	-21.6%
N#Cc1ccc(OCC(=O)N/N=C2\CCc3ccccc32)cc1	-20.7%	-14.6%
O=S(=O)(Cc1cnc(Cl)s1)c1ccccc1	nt	-8.6%
O=C(c1cc(=O)[nH]c2ccccc12)N(Cc1nnc(-c2ccccc2Cl)o1)C1CC1	-18.0%	-10.0%
Cc1csc(SCC(=O)N2CCN(S(=O)(=O)c3ccccc3)CC2)n1	-26.9%	-11.9%
N=C(N)S/C=C\C(=O)O	-11.4%	-12.9%
CCS(=O)(=O)N1Cc2ccccc2CC1C(=O)Nc1nc2ccc(C)cc2s1 (configuration not stated)	-9.9%	-20.6%
O=C(c1cc(COc2cccc(C(F)(F)F)c2)on1)N1C[C@H]2CC[C@H]1C2	i	-12.9%
CN(CC(=O)Nc1ccc(F)cc1)C(=O)c1ccc(-c2ccc(Cl)cc2)o1	-3.8%	-20.6%
Cc1cc(Cl)c(S(=O)(=O)Nc2ccc3c(c2)OCO3)cc1OCC(N)=O	-19.4%	-13.5%
COc1ccc(N2CCN(S(=O)(=O)c3ccc4c(c3)NC(=O)C(C)S4)CC2)cc1 (configuration not stated)	-12.4%	-17.3%
Cc1ccc(NC(=O)COC(=O)C2C3CC4OC(=O)C2C4C3)cc1Cl (configuration not stated)	-0.3%	-20.2%
CCc1sc(C(=O)Nc2ncccc2O)cc1C	-29.1%	-25.1%
Cn1c(=O)c2cc(NC(=O)NCCc3cccs3)ccc2n1Cc1cccc(C(F)(F)F)c1	?	-15.1%
S=c1[nH]cc(-c2ccc(Cl)cc2)n1Cc1ccccc1	-15.7%	-11.4%
